Screening data (PubChem)
HIV TAR-Tat – TAR RNA-Tat peptide displacers, HIV-1, primary screen, biochemical, FRET, FAM/TAMRA-labeled Tat | HIV-1 TAR RNA, Tat peptide displacement FRET; hits give high values | actives 0.6% (n = 100,000) | AID 1259389, 2018 | z-score (no concentration beside the values);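 further: score is relative to mean and SD of negative controls; some compounds called inactive have numbers as strong as hits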
CDC25B-CDK2 inh – primary biochemical HTRF screen for blockers of M-phase inducer phosphatase 2 binding to CDK2/cyclin A | actives 0.72% (n = 94,000) | AID 1259370, 2018 | P30305+P24941 | z-score (test concentration not listed) | HTRF CDC25B-CDK2/CyclinA binding, anti-His/anti-Flag; hits give high values;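 further: score is relative to mean and SD of negative controls; strong numbers were not always called active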
* marks the source's active call; other numbers are inactive results; nt = no result given.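 How the source made its calls: active means z-score from 3 up in half or more of its runs; inactive means the rest.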 Hits appear at their usual frequency; overall some 0.87% were active at least once.

SMILES	HIV TAR-Tat	CDC25B-CDK2 inh
Clc1ccc(OCc2nnc3sc(/C=C/c4cccs4)nn23)cc1	0.23	-1.4
Cc1ccccc1OCCSc1nc(-c2ccccc2)nc2cc(=O)[nH]n12	1.6	nt
O=C(CCn1c(=O)[nH]c2ccsc2c1=O)N1CCN(c2ncccn2)CC1	nt	2.2
CC(C)OC(=O)c1ccc(CSc2nc3c(c(=O)[nH]2)CCC3)cc1	1.6	-0.47
CCCSc1ncc(Cl)c(C(=O)N(Cc2ccc(C(C)(C)C)cc2)C2CCS(=O)(=O)C2)n1 (configuration not stated)	1.2	-0.75
CC1=C(C(=O)OC(C)C)C(c2ccccc2)C2=C(CCCC2=O)N1 (configuration not stated)	2.1	-1.8
O=C(NC1CCCC1)c1ccc(CNc2c(N3CCCCC3)c(=O)c2=O)cc1	-0.46	-0.76
Cc1cccc(C(=O)O)c1F	nt	-0.55
CS(=O)(=O)n1nc(-c2ccccc2)nc1NCc1ccco1	0.97	-0.74
c1ccc(OCCSc2nnc3ccc4ccccc4n23)cc1	-1.8	0.72
Cc1ccc(-c2nnc(SCC(=O)OCc3ccccc3)o2)cc1	2.1	nt
CC(C)Cn1cc(C(=O)N2CCN(c3ccccn3)CC2)c2c3ccccc3n(C)c2c1=O	nt	-1.7
CCOc1ccc(Nc2nc(NCc3ccco3)c3ccccc3n2)cc1	nt	-1.8
O=C(CCc1nc2ccccc2[nH]c1=O)OCc1ccc(Br)cc1	-0.12	-0.86
CCOc1cccc(C2Nc3ccccc3-c3cc(C)nn32)c1O (configuration not stated)	0.89	2
Cc1cc(=O)oc2cc(O)cc(O)c12	1.2	nt
COc1cccc(N2CC(=O)N(/N=C/c3ccc(C)o3)CC2=O)c1	nt	1.8
O=[N+]([O-])c1cccnc1Nc1ccc(F)cc1	0.71	0.24
O=C(Nc1ccc2nc3n(c(=O)c2c1)CCCCC3)C(=O)N1CCCCC1	nt	-2.6
Cc1cn2c(=O)cc(CSc3ncn[nH]3)nc2s1	0.6	nt
COc1ccc(C2Nc3ccc(C(=O)c4ccccc4)cc3NC3=C2C(=O)CCC3)cc1O (configuration not stated)	-0.19	-0.17
COc1cccc(-c2cc(C(=O)Nc3sc4c(c3C#N)CCC4)no2)c1	nt	-4.4
CO[C@@]12[C@H](COC(N)=O)C3=C(C(=O)C(C)=C(N)C3=O)N1C[C@@H]1N[C@@H]12	1.9	nt
Cc1nc(N2CCN(c3ccccc3F)CC2)c2c(C)c(C)sc2n1	3.8	nt
CCn1cnc2c(=O)oc3ccc(S(=O)(=O)N4CCN(c5cc(C)ccc5C)CC4)cc3c21	0.17	-1.1
CC(C)(C)C1=CC(=O)C=C(C(C)(C)C)C1=O	nt	0.7
CCOC(=O)C1=C(C)OC(N)=C(C#N)C1c1ccc(N(C)C)cc1 (configuration not stated)	nt	-0.84
Cc1c(NC(=O)C2CCCN2S(=O)(=O)c2ccc(Cl)cc2)c(=O)n(-c2ccccc2)n1C (configuration not stated)	2.6	-1.1
C=CCN1C(=O)C2(/C(=C(/O)c3ccc(OC)cc3)C(=O)C(=O)N2CCOC)c2ccccc21 (configuration not stated)	-0.96	-3.3
CCCCC(=O)Nc1ccc2nc(SCC(=O)Nc3nccs3)sc2c1	2	-1.7
CC[n+]1c(C)n(-c2ccccc2)c2ccccc21	1.8	-1.2
Cc1ccc(NC(=O)C2C3C=CC4(O3)C2C(=O)N(CC2CCCO2)C4C(=O)NC2CCCCC2)cc1 (configuration not stated)	0.44	-0.62
C#CCSc1nc(-c2ccc(C(F)(F)F)cc2)nc(C)c1C(C)=O	nt	-0.42
CCOC(=O)c1sc2sc(C(=O)OCC)c(-c3ccco3)c2c1N	nt	-1.9
COc1cccc(C(=O)NCCN2CCN(c3ccc(Cl)cc3)CC2)c1	nt	-1.8
CN1C(C(=O)N2CCN(Cc3ccccc3)CC2)=CC(c2ccco2)=NS1(=O)=O	-0.03	2
FC(F)(F)c1cccc(-n2cc(-c3ccccc3)c3c(NCCN4CCOCC4)ncnc32)c1	nt	-1.6
O=C(CSc1ccc(-c2ccccn2)nn1)Nc1ccc(Br)cc1	1.5	nt
CSc1ccc(CNC(=O)C2CCCN(c3nn4c(=O)c5c(nc4s3)CCCC5)C2)cc1 (configuration not stated)	1.6	nt
COc1cc(C2C(C#N)=C(N)Oc3n[nH]c(C)c32)ccc1OCc1ccccc1 (configuration not stated)	0.6	1.2

Pulled by compound from the list above, five records:
SMILES	HIV TAR-Tat	CDC25B-CDK2 inh
CN1C(C(=O)N2CCN(Cc3ccccc3)CC2)=CC(c2ccco2)=NS1(=O)=O	-0.03	2
O=C(CSc1ccc(-c2ccccn2)nn1)Nc1ccc(Br)cc1	1.5	nt
COc1cccc(C(=O)NCCN2CCN(c3ccc(Cl)cc3)CC2)c1	nt	-1.8
C#CCSc1nc(-c2ccc(C(F)(F)F)cc2)nc(C)c1C(C)=O	nt	-0.42
CSc1ccc(CNC(=O)C2CCCN(c3nn4c(=O)c5c(nc4s3)CCCC5)C2)cc1 (configuration not stated)	1.6	nt

(cont.)
SMILES	HIV TAR-Tat	CDC25B-CDK2 inh
O=C(C1CCN(c2nc(-c3ccc(Cl)cc3)no2)CC1)N1CCN(C2CCCCC2)CC1	0.91	nt
CCOc1ccc(C2C(C(=O)OC)=C(C)NC3=C2C(=O)CC(c2ccc(OC)cc2)C3)cc1 (configuration not stated)	-0.81	-0.74
O=C1Nc2cc(C(=O)N3CCC(N4CCCCC4)CC3)ccc2N2CCCCC12 (configuration not stated)	1.3	nt
COC(=O)CS/C(=C(\C=N\O)c1ccccc1)C(F)(F)F	nt	0.11
CC(=O)c1cccc(NC(=O)c2ccc(-c3cc(Cl)ccc3Cl)o2)c1	nt	-4.8
O=C(CCC(=O)N1CC=C(c2c[nH]c3ccccc23)CC1)NC1CCCC1	-1.4	nt
Cc1cc(C)c2c(-n3cccc3)nn(CC(=O)N3CCCC3)c2n1	-1	nt
CCCN(CCC)S(=O)(=O)c1ccc2c(c1)CC(C)N2C(=O)C1CC1 (configuration not stated)	-0.12	nt
O=C(CCCn1c(=O)c2cccn2c2ccccc21)NCc1ccccn1	2	nt
O=c1c(N2CCCC2)csc2ccc(F)cc12	0.36	nt
O=C(Nc1cccnc1)c1noc2c1CCc1sccc1-2	0.31	nt
Cc1cccn2c(=O)c(C(=O)NC3CCCCC3)cnc12	1.9	nt
CC(=O)c1ccc(OCCn2cnc3c(N)ncnc32)cc1	nt	-0.81
O=C(NCc1ccc2c(c1)OCO2)[C@@H](c1ccccc1)N1Cc2ccccc2C1=O	-0.02	-1.9
Cc1nnc(SCc2ccc([N+](=O)[O-])cc2)s1	nt	-1.6
O=S(=O)(Nc1nc2nccc(-c3ccccc3)n2n1)c1ccccc1	nt	-2.5
CCSc1nc2sc3c(c2c(=O)n1-c1ccccc1)CC(C)(C)OC3	1.9	-1.3
COc1ccc2c(c1)CC(NC(=O)Nc1cccc3c1CCCC3)CO2 (configuration not stated)	1.5	nt
CCN1C(=O)C(O)(CC(=O)c2ccc(C(C)C)cc2)c2ccccc21 (configuration not stated)	-0.41	0.25
Cc1cc(N2CCCC2)nc(-n2cc([N+](=O)[O-])cn2)n1	1.6	nt
CC1=C(c2ccc(F)cc2)S(=O)(=O)NC1=NCc1ccco1	-0.14	nt
CN(Cc1ccccc1)c1nnc(NC(=O)Cn2c(=O)oc3ccccc32)s1	1.5	-0.7
Cc1nn(C(C)C(=O)NC2CC2)c2ccccc12 (configuration not stated)	1.5	-1.7
O=C1Nc2ccc(Cl)cc2C12Nc1ccccc1-c1nnc(SCc3ccccc3F)nc1O2 (configuration not stated)	nt	-0.24
O=C(NCc1ccc2c(c1)OCO2)c1cnn2c3c(cnc12)CCCCCC3	0.59	nt
CSc1nc(NCCO)c2sc3nc(C)c4c(c3c2n1)CC(C)(C)OC4	0.67	-2.3
C#CCOc1ccc(C2C3=C(CC(C)(C)CC3=O)NC3=C2C(=O)CC(C)(C)C3)cc1	2.6	-1.4
CCCn1c(=O)c2[nH]c(-c3ccc(S(=O)(=O)O)cc3)nc2n(CCC)c1=O	nt	-0.11
O=C(OC1CCSC1)c1cc(C(F)(F)F)cc(C(F)(F)F)c1 (configuration not stated)	nt	0.96
COc1ccc(N2CSC3=C(C#N)C(c4ccc(Br)cc4)CC(=O)N3C2)c(OC)c1 (configuration not stated)	0.32	2.4
CCOC(=O)c1nnc(-c2ccc(Br)cc2)o1	4.7	-1
COc1ccc(CN2C(=O)c3oc4ccc(C)cc4c(=O)c3C2c2ccc(O)c(OC)c2)cc1 (configuration not stated)	0.77	-0.21

Four entries out of the list, sorted by number of heavy atoms, rising:
SMILES	HIV TAR-Tat	CDC25B-CDK2 inh
Cc1nnc(SCc2ccc([N+](=O)[O-])cc2)s1	nt	-1.6
CC(=O)c1ccc(OCCn2cnc3c(N)ncnc32)cc1	nt	-0.81
CN1C(C(=O)N2CCN(Cc3ccccc3)CC2)=CC(c2ccco2)=NS1(=O)=O	-0.03	2
COc1ccc(CN2C(=O)c3oc4ccc(C)cc4c(=O)c3C2c2ccc(O)c(OC)c2)cc1 (configuration not stated)	0.77	-0.21

Carrying on.
SMILES	HIV TAR-Tat	CDC25B-CDK2 inh
CC1(C)CC(=O)N(CC(=O)O)c2ccccc2S1	nt	-1.3
O=C(NCc1ccco1)C1CCN(S(=O)(=O)c2ccc(Br)cc2)CC1	1.5	-0.47
CCOC(=O)c1c(N)sc2c1CCC(Br)C2=O (configuration not stated)	-0.34	0.39
O=C(CSc1nc2ccccc2c(=O)n1Cc1ccco1)NCC1CCCO1 (configuration not stated)	nt	0.73
COc1ccc(-c2noc(CN(C)S(=O)(=O)c3c(C)cc(C)cc3C)n2)cc1OC	-0.01	0.48
Cc1c(C(=O)N2CCc3ccccc3C2)oc2ccc(S(=O)(=O)N3CCCCCC3)cc12	nt	-0.28
CC(C)(C)C(=O)N1N=C(c2ccc(NS(C)(=O)=O)cc2)CC1c1cccc(F)c1 (configuration not stated)	nt	-0.42
CCOC(=O)c1c(C)csc1NC(=O)Nc1c(Cl)cccc1Cl	nt	-1.2
CC1CCC(NS(=O)(=O)c2ccc3c(c2)oc(=O)n3C)CC1 (configuration not stated)	nt	-2.1
CC(C)C(=O)N(Cc1ccco1)S(=O)(=O)c1cccc2cccnc12	0.32	-0.33
COc1ccc(C2CC(=O)C3=C(C2)Nc2ncnn2C3c2ccc(O)c(OC)c2)cc1 (configuration not stated)	-0.76	-1.7
CCCCn1cc(S(=O)(=O)c2ccccc2)c(=O)c2cc(F)c(N3CCN(CCC)CC3)cc21	0.81	nt
C=CCn1c(=O)c2ccc(C(=O)NC(C)CC)cc2n2c(=O)[nH]nc12 (configuration not stated)	-0.21	-2.5
CC(=O)N(c1ccc(NS(=O)(=O)c2cccs2)cn1)S(=O)(=O)c1cccs1	nt	0.14
CCCc1nn2c(=O)cc(COc3ccccc3C)nc2s1	-0.16	0.05
CCC12CN3CC(C)(CN(C1)C3c1ccc(C(C)C)cc1)C2=O (configuration not stated)	2	-1.7
O=C(OCc1cc(=O)n2c3c(sc2n1)CCCC3)C(c1ccccc1)c1ccccc1	-0.02	nt
O=C(NCC1COc2ccccc2O1)c1cn(-c2ccc(F)cc2)nn1 (configuration not stated)	2.5	-0.97
NC(=O)c1sc(-c2ccsc2)cc1NC(=O)C(F)(F)F	nt	-1.5
CCn1c2ccccc2c2cc(NC(=O)CN3C(=O)c4ccccc4S3(=O)=O)ccc21	-1.3	1.8
Cc1noc2ncnc(N3CCCC(C(=O)NCCCN(C)C4CCCCC4)C3)c12 (configuration not stated)	0.03	nt
O=C(Cn1nc2c3cc(F)ccc3n(Cc3ccccc3F)cc-2c1=O)NCc1ccc(F)cc1	-0.91	nt
CS(=O)(=O)Nc1nc2n(n1)C(c1ccc(F)cc1)C=C(c1ccc(Cl)cc1)N2 (configuration not stated)	-2.1	-2.9
Cc1cccc(N2CCN(S(=O)(=O)c3cn(C)c(C)n3)CC2)c1C	1.2	nt
CCN(Cc1cc(=O)n2oc(C)cc2n1)c1ccccc1	-2.4	nt
CCCCc1c(O)c2cccc3c4ccccc4n(c1=O)c23	nt	-1.8
O=C(NCc1c(-n2cccc2)sc2c1CCCC2)Nc1ccc2c(c1)OCCO2	0.5	-0.37
OCc1ccc(-c2ccc(Cl)cc2)o1	-7.1	-1.5
O=C(CSc1nc2c(sc3ccccc32)c(=O)n1CCO)NCC1CCCO1 (configuration not stated)	nt	-0.4
CC1N=C2c3ccccc3N=C(SC(C)C(=O)Nc3ccccc3)N2C1=O (configuration not stated)	-0.91	nt
Cc1ccc(C2=NS(=O)(=O)N(C)C(C(=O)NC3CCCCC3)=C2)cc1	1.4	-1.5
CN(C)CCCNc1ncnc2sc3c(c12)CCCC3	nt	-0.75
CC1(C)CC(=O)C2=C(C1)NC(=S)NC2c1cccc(F)c1 (configuration not stated)	nt	0.53
